# Assay outcomes from PubChem.
# Lassa entry inh = inhibitors of Lassa virus binding or cell entry; Lassa virus pseudotype entry inhibition, cell reporter; control for the full effect not named in the record; Potency, µM (highest dose often 37.9 µM), without a hit: top-dose activity change, negative = inhibition, usual class: inhibitors; actives 1.2% (n = 300,000); AID 540256; active means well fitted inhibition curve with a large enough effect; inconclusive means small, poorly fitted or top-dose-only effect, or effect the other way; inactive means flat fitted curve, though single readings scatter; tested in HEK293 cells; note: % is set by controls: 0 for no effect and ±100 for the full control effect; nearly all actives have a fitted effect of over 50% in size; luciferase read-out
# MARV entry inh = blocks Marburg virus binding to or entry into cells. actives 1.8% (n = 300,000). Marburg virus pseudotyped entry inhibition, cell reporter; control for the full effect not named in the record; about a third of the inactives were read at about 46 µM. AID 540276. Potency, µM (doses to about 37.8 µM), for the others: top-dose activity change, negative = inhibition, actives largely listed as inhibitors; active = well fitted inhibition curve with a large enough effect; inconclusive = small, poorly fitted or top-dose-only effect, or effect the other way; inactive = flat fitted curve, though single readings scatter; tested in HEK293 cells; about a fifth of its hits are not listed in these tables; note: % is set by controls: 0 for no effect and ±100 for the full control effect; luciferase read-out
# SARS PLP yeast = SARS-CoV PLP inhibition in yeast; S. cerevisiae expressing SARS-CoV PLpro, growth rescue; control for the full effect not named in the record; Potency, µM (top dose mostly 32.9 µM), without a hit: at the highest dose activity, positive = growth rescue; actives 0.19% (n = 330,000); note: 0% is about no effect; nearly all actives have a fitted effect of over 55% in size; growth read by luminescence after 48 h
# Cruzain Triton = inhibitors of Trypanosoma cruzi cruzain with detergent | P25779 | actives 0.43% (n = 200,000) | purified cruzain, Z-FR-AMC fluorescence, 0.01% Triton | Potency, µM, without a hit: max response, negative = inhibition, hits mostly inhibitors; active = well fitted curve in the direction sought with a large enough effect; inconclusive = small, poorly fitted or top-dose-only effect, or another doubt; inactive = no such curve, though single readings can be large; an effect the other way counts as inactive or inconclusive;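 note: plate controls were neutral wells for no effect and buffer without enzyme for full effect; nearly all actives have a fitted effect of over 40% in size; top concentration of the series not given in the record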
# Target sequence (P25779 123-467 limits assumed): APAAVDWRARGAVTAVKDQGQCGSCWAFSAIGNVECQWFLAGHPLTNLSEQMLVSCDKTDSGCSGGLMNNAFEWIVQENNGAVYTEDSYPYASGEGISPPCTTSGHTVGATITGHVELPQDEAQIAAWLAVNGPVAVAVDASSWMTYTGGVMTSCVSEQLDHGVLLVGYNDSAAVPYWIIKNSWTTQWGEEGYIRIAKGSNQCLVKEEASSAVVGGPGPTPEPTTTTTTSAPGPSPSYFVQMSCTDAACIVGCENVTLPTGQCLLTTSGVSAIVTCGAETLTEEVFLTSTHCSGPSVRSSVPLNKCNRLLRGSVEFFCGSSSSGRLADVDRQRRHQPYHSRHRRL
#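 Cysteine protease activity tested under reducing, mildly acidic conditions (100 mM sodium acetate pH 5.5, 5 mM DTT) plus 0.01% Triton X-100. Cruzain 1.5 nM; substrate Z-FR-AMC 2 uM; 15 min compound preincubation at room temperature.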
# NS1 function inh = blocks influenza NS1 protein function | S. cerevisiae slowed by influenza A NS1, growth recovery by OD600 | AID 2326 | actives 0.4% (n = 270,000) | Potency, µM (doses to about 46.1 µM), without a hit: top-dose activity, positive = more growth; note: actives are rising curves; nearly all actives have a fitted effect of over 50% in size
#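 Recovery from NS1-induced slow growth read by OD600 in budding yeast switched to galactose assay medium (pH 6.0, -URA) at 1:100 dilution. Compound 23 nl per well; the matching strain lacking NS1 serves as control.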
# Cruzain inh noDet = cruzain (T. cruzi) inhibition without detergent | P25779 | purified cruzain, Z-FR-AMC fluorescence, no detergent | Potency, µM, for the others: max response, negative = inhibition, most hits filed as inhibitors | actives 2.3% (n = 200,000); active = well fitted curve in the direction sought with a large enough effect; inconclusive = small, poorly fitted or top-dose-only effect, or another doubt; inactive = no such curve, though single readings can be large; an effect the other way counts as inactive or inconclusive;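 note: plate controls were enzyme without inhibitor for no effect and buffer without enzyme for full effect; nearly all actives have a fitted effect of over 40% in size; top concentration of the series not given in the record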
#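 Purified cruzain at 1.5 nM, pre-incubated 15 min with compound at room temperature in 100 mM sodium acetate pH 5.5, 5 mM DTT, 0.00005% Triton X-100. Reaction started with 2 uM Z-FR-AMC; AMC fluorescence increase over 60 s gives rate.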
# RE007 growth inh = less growth of the S. pombe RE007 Vpr strain | Potency, µM (titrated, usually from 92.2 µM), inactives show at the highest dose activity change, negative = less growth | S. pombe RE007 Vpr strain, BacTiter-Glo ATP luminescence, 24 h; control for the full effect not named in the record | actives 0.21% (n = 360,000) | AID 651644; active = well fitted falling curve with a large enough effect; inconclusive = small, poorly fitted or top-dose-only effect; inactive = no such curve, though single readings can be large or run the other way;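 note: % is set by controls: 0 for no effect and ±100 for the full control effect; nearly all actives have a fitted effect of over 50% in size; the assay follows cell death caused by Vpr and the record does not say whether a fall means rescue or toxicity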
#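 Fission yeast strain RE007, carrying one chromosomally integrated HIV-1 vpr copy, was seeded at OD 0.01 in PMG+AL medium with 23 nL pinned compound. After 24 h at 30 °C and 99% humidity, viability was read by BacTiter-Glo luminescence.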
# 2A StopGo = FMDV 2A StopGo reporter, luciferase signal. AID 1159524. human cells with a luciferase reporter of 2A StopGo recoding; control for the full effect not named in the record. actives 1.2% (n = 410,000). Potency, µM (series often up to 57.9 µM), without a hit: at the highest dose signal change, negative = less light; active = well fitted falling curve with a large enough effect; inconclusive = small, poorly fitted or top-dose-only effect; inactive = no such curve, though single readings can be large or run the other way; tested in HEK293T cells; note: % is set by controls: 0 for no effect and ±100 for the full control effect; nearly all actives have a fitted effect of over 45% in size; luciferase light after 4 h
# * marks the source's active call; other numbers are inactive results; ? = inconclusive; . = not tested or not shown; [ ] = another dose, or the depositor's remark. Unless noted, calls come from the whole dose curve; as a rule, active means well fitted rising curve with a large enough effect; inconclusive means small, poorly fitted or top-dose-only effect; inactive means no such curve, though single readings can be large or run the other way. Potency is the fitted concentration of half-maximal effect.
# Below each compound: Lassa entry inh | MARV entry inh | SARS PLP yeast | Cruzain Triton | NS1 function inh | Cruzain inh noDet | RE007 growth inh | 2A StopGo
- CCOC(=O)Cc1csc(NC(=O)CCCCCN2C(=O)c3cccc4cccc(c34)C2=O)n1
    -27% | -24% | . | . | . | . | -13% | ?
- COc1ccc(-c2cc(-c3ccc(Cl)cc3)n[nH]2)c(O)c1
    . | . | -2% | . | -7% | . | -5% | 19%
- CCc1nnc(SC(CC)C(=O)Nc2ccc(OC)c(Cl)c2)c2cc3occc3n12 (stereo not drawn)
    -18%[46.1 µM] | . | . | -5.4% | . | -26% | . | ?
- CCNC(=O)CC1C(=O)N(c2ccc(C)cc2)C(=O)N1CCc1sccc1C (stereo not drawn)
    . | . | 0% | . | -9% | . | -15% | -11%
- CCOC(CCNC(=O)c1cn(CC(C)C)c(=O)c2c1c1ccccc1n2C)OCC
    -14%[46.1 µM] | 28%[46.1 µM] | 1% | . | 1% | . | 16% | -5%
- COC(=O)CSc1nc2ccccc2n1CC(=O)N(C(C)C)C(C)C
    -3% | 15% | -1% | -2.1% | 1% | 10% | -13% | 7%
- C=CCN(C(=O)CNC(=O)c1ccco1)C(C(=O)NC1CCCCC1)c1ccc(OC)cc1OC (stereo not drawn)
    23% | 14%[46.1 µM] | -9% | 3.0% | 8% | 9% | 12% | -3%
- O=[N+]([O-])c1cccc2c3c([nH]c12)CCCC3
    18% | -4% | -4% | . | 7% | . | -20% | -10%
- C=CCn1c(SCC(=O)Nc2ccc3c(c2)CCC3)nc2ccccc2c1=O
    -1% | 0%[46.1 µM] | 6% | -1.7% | -3% | 6% | -12% | -12%
- CCC(Sc1nc2ccccc2c2nc3ccccc3n12)C(=O)NCc1ccco1 (stereo not drawn)
    . | -3% | 9% | -1.6% | -8% | 1% | . | .
- CCCCn1c(N)c(N(CC(C)C)C(=O)c2cnc(C)cn2)c(=O)[nH]c1=O
    -5% | 30% | -9% | . | . | . | -2% | -13%
- COc1cc(/C=C2\SC(=S)N(CCC(=O)N3CCN(C)CC3)C2=O)cc(OC)c1OC
    -29%[46.1 µM] | ? | 6% | . | ? | . | -17% | -24%
- N#CC(C(=O)Nc1ccccc1)=C1Nc2ccccc2N1
    0% | -3% | -1% | -3.8% | -14% | -8% | -18% | 9%
- Cc1ccc(NC(=O)CSc2ccc3nnc(CCNS(=O)(=O)c4ccccc4)n3n2)cc1Cl
    21%[46.1 µM] | . | . | -8.0% | . | ? | . | -27%
- COc1ccc(-c2ccccc2)cc1NC(=O)c1cccs1
    -9% | -10% | -2% | . | -2% | . | 24% | -17%
- CC(C)c1nc2cc3ccccc3cc2[nH]1
    -27% | ? | -9% | -18% | -112% | ? | 1% | 22%
- O=C(Cn1ncc2c([nH]c3ccccc32)c1=O)NCC1CCN(Cc2ccccc2F)CC1
    . | . | ? | . | -12% | . | 4% | -11%
- COc1ccc(C(=O)N2CCn3c2nc2ccccc23)cc1
    13% | 23%[46.1 µM] | 0% | . | 4% | . | 0% | 26%
- CCCCOc1ccc(C(=O)Nc2ccc(C)cc2[N+](=O)[O-])cc1
    9% | -2% | 14% | -5.0% | -2% | -13% | 38% | 7%
- Cc1nc(NC(=O)CCc2ccccc2)sc1C
    ? | ? | 4% | . | 21% | . | 24% | 45%[activator]
- COc1ccc(C2(C)NC(=O)N(CC(=O)NC(C)c3ccc(CC(C)C)cc3)C2=O)cc1 (stereo not drawn)
    . | . | -1% | . | 11% | . | -15% | -17%
- O=C(Nc1c2c(nn1-c1ccccc1)CS(=O)C2)c1ccc(Br)o1 (stereo not drawn)
    2% | -12% | ? | . | -5% | . | 3% | -14%
- CCCCn1c(N)c(N(CCOC)C(=O)c2ccc(S(=O)(=O)N3CCCCC3)cc2)c(=O)[nH]c1=O
    6% | -1% | 0% | . | . | . | 1% | -7%
- Cc1ccccc1OCC(=O)Nc1cccc(C(=O)OCc2cc(=O)n3c(C)csc3n2)c1
    14%[46.1 µM] | . | . | -0.9% | . | 2% | . | -23%
- CCOc1ccc(C2c3cc(OC)c(OC)cc3CC(=O)N2c2ccc(OC)cc2)cc1 (stereo not drawn)
    ? | ? | 5% | -10% | 10% | ? | -1% | -22%
- O=C(CN(CCc1ccccc1)S(=O)(=O)c1ccc(Br)cc1)N/N=C/c1ccc2c(c1)OCO2
    -26% | -6% | 12% | -3.4% | 1% | ? | -23% | 0%
- Cc1ccc(NC(=S)Nc2ccc3cn[nH]c3c2)cc1C
    . | . | 2.5µM* | -6.2% | -6% | 20% | -5% | 10%
- CN1[C@@H]2CCC[C@H]1CC(=O)C2
    . | . | . | -4.8% | . | 2% | 4% | -25%
- CCOc1ccccc1NC(=O)Cn1ccn(Cc2ccc(C)cc2)c(=O)c1=O
    -2%[46.1 µM] | . | . | -1.9% | . | 12% | . | 7%
- CCc1cccc(C)c1NC(=S)N(CCOC)C(C)c1ccco1 (stereo not drawn)
    1% | -6%[46.1 µM] | 4% | . | -2% | . | 5% | 1%

# Entries of single compounds as entered above. Order of screens: Lassa entry inh, MARV entry inh, SARS PLP yeast, Cruzain Triton, NS1 function inh, Cruzain inh noDet, RE007 growth inh, 2A StopGo
# Results for O=[N+]([O-])c1cccc2c3c([nH]c12)CCCC3 → 18%, -4%, -4%, ., 7%, ., -20%, -10%
# Results for COc1ccc(-c2ccccc2)cc1NC(=O)c1cccs1 → -9%, -10%, -2%, ., -2%, ., 24%, -17%
# Results for Cc1nc(NC(=O)CCc2ccccc2)sc1C → ?, ?, 4%, ., 21%, ., 24%, 45%[activator]

# Carrying on:
# Below each compound: Lassa entry inh | MARV entry inh | SARS PLP yeast | Cruzain Triton | NS1 function inh | Cruzain inh noDet | RE007 growth inh | 2A StopGo
- O=[N+]([O-])c1ccc(NC(=S)N2CCN(c3ccccc3)CC2)cc1
    24% | 5% | -26% | -3.6% | -9% | -26% | 4% | 4%
- CC(=O)Nc1ccc(C(=O)N/N=C/c2cc(Br)cc(Br)c2O)cc1
    ? | 10µM* | 0% | . | . | . | 3% | -14%
- COc1ccc(NC(=O)C2CCCN(S(=O)(=O)c3cccc4cccnc34)C2)cc1OC (stereo not drawn)
    . | 2% | -1% | -3.6% | -31% | 13% | 19% | ?
- N#CCCN(C1CCCCC1)S(=O)(=O)CCOc1ccccc1
    -1% | -8% | -2% | 0.7% | -6% | -5% | -13% | 5%
- C=C(C)C(=O)Oc1ccc(N=Nc2ccc(C)cc2)ccc1=O
    ? | ? | . | . | . | . | ? | ?
- C(=C\c1ccccn1)/c1ccccn1
    6% | 7%[46.1 µM] | -2% | . | 4% | . | 7% | 40%[activator]
- CCCOc1ccc(/C=C2/C(=O)ON=C2C)cc1Cl
    . | . | 0% | . | 2% | . | -14% | 0%
- CCOCCCNC(=O)CCCC1=NS(=O)(=O)c2ccccc2N1
    -14% | -2% | ? | -0.3% | 0% | 2% | 14% | -11%
- CCOc1ccc(C(=O)Nc2ccccc2OCc2cc(=O)n3ccccc3n2)cc1
    13%[46.1 µM] | . | . | 4.3% | . | 25% | . | 2%
- COc1ccc(N(C(=O)COc2ccccc2)C2C=CS(=O)(=O)C2)c(OC)c1 (stereo not drawn)
    ? | 2% | -11% | 4.8% | 2% | -2% | 9% | 8%
- Cn1c(SCc2cc([N+](=O)[O-])cc3c2OCOC3)nnc1-c1ccccn1
    -2%[46.1 µM] | -1%[46.1 µM] | 0% | . | 5% | . | 2% | -6%
- O=C(O)[C@H]1CCCC[C@H]1C(=O)NCCc1ccccc1
    ? | 25% | -7% | -0.7% | 7% | 9% | 1% | 7%
- CC(=O)c1ccc(Oc2cnccn2)cc1
    5% | 4%[46.1 µM] | 2% | . | . | . | 22% | 9%
- COc1cc(S(=O)(=O)NCc2ccc3c(c2)OCO3)ccc1F
    . | . | 1% | . | -3% | . | -14% | 37%[activator]
- CCOc1cc(CNCCc2ccc(S(N)(=O)=O)cc2)ccc1OCc1ccc(Cl)cc1
    ? | ? | ? | 1.0% | 10% | -1% | 26% | ?
- O=C(CN1CCN(c2ccc(F)cc2)CC1)NC(=O)NCc1ccco1
    ? | 6%[46.1 µM] | 1% | . | -1% | . | -2% | -9%
- CC1CCCCN1CCCNC(=O)c1ccc(Br)cc1 (stereo not drawn)
    1% | -19%[46.1 µM] | 1% | . | 5% | . | 7% | -3%
- O=C1CN(S(=O)(=O)c2ccc(Cl)cc2)CC(=O)N1CCc1ccccc1
    5% | 15% | -11% | -1.1% | -6% | -8% | -8% | -21%
- CCCN(C(=O)c1cc2c(s1)CCC2)c1c(N)n(Cc2ccccc2)c(=O)[nH]c1=O
    . | . | 0% | . | 1% | . | -1% | -4%
- Cc1ccccc1Oc1ncnc(N)c1[N+](=O)[O-]
    -18% | -15% | -2% | . | . | . | 3% | -13%
- COc1ccc(NC(=O)CSc2nc(=O)n(CCN(C)C)c3c2CCCC3)cc1OC
    -30% | -27% | 2% | . | . | . | 4% | 16%
- CC1C(=O)C(C)C(c2ccco2)NC1c1ccco1 (stereo not drawn)
    -14% | -8% | 3% | 2.3% | -3% | -10% | -6% | .
- O=C(Nc1c(Cl)ccc2nsnc12)c1ccc([N+](=O)[O-])o1
    . | . | -1% | . | -18% | . | 4% | -26%
- CC(/C=N/n1c(-c2ccco2)n[nH]c1=S)=C\c1ccccc1
    15% | -14% | -60% | -16% | -3% | -4% | -17% | -27%
- Oc1ccc(-c2csc(-c3cccnc3)n2)cc1O
    ? | ? | -2% | . | -8% | . | 3% | 26%
- CCOC(=O)c1sc(N(Cc2ccccc2)C(=O)COC(=O)c2cnccn2)nc1C
    -13% | -12%[46.1 µM] | 0% | . | -22% | . | -6% | 7%
